High-throughput results from PubChem BioAssay.
RecA intein inh: inhibitors of M. tuberculosis RecA intein splicing | inhibition, %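 (about 9 µM by stock and volumes)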 | P9WHJ3 | AID 2221 | 290,000 compounds, 0.75% hits | cell-free RecA intein splicing, fluorescence; in the data active = inhibition above about 30%;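 note: 0% = vehicle wells and 100% = reference inhibitor control wells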
Target sequence (P9WHJ3 whole entry, looked up): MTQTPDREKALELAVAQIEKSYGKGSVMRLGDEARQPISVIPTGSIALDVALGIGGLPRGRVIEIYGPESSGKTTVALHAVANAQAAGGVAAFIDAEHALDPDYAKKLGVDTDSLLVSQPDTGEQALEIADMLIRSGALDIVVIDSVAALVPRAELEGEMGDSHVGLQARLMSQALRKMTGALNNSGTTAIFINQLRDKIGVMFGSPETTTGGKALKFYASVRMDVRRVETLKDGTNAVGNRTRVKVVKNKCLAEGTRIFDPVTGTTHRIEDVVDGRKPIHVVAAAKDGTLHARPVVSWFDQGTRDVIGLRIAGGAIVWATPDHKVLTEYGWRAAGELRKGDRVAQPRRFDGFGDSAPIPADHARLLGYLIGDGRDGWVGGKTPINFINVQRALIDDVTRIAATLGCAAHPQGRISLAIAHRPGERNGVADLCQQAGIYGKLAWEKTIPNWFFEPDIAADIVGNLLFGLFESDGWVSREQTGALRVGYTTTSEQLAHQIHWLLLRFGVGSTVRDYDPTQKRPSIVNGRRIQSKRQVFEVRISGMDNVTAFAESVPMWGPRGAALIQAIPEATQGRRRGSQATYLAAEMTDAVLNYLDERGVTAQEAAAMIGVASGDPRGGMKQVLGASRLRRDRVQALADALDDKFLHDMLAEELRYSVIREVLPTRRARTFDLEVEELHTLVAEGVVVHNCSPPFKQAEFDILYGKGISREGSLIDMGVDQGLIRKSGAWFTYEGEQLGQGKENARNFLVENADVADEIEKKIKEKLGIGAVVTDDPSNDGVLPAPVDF
YopH inh: blocks Yersinia enterocolitica YopH tyrosine phosphatase; fluorescence Ex485/Em525; inhibition, %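 (about 10 µM by stock and volumes)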; 140,000 compounds, 0.16% hits; AID 898;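 active = inhibition of 50% or more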;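 note: controls were vehicle for no effect and minimum signal wells for full effect; inactives centre near -20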
Arbovirus inh: blocks arbovirus infection; inhibition, % at 10 µM; arbovirus infection cell-based antiviral screen; 200,000 compounds, 0.37% hits; AID 1251;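 active = inhibition from about 30%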;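 note: bluetongue infection of BSR cells; cell survival read as ATP light after 72 h; 0% = infected wells without compound and 100% = uninfected wells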
Mtb H37Rv: M. tuberculosis H37Rv growth inhibitors, H37Rv strain (AID 1626); inhibition, % at 10 µM; hits with a dose series show IC50 in µM; 220,000 compounds, 0.95% hits; M. tuberculosis H37Rv growth inhibition; higher % means a stronger effect;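 active = confirmed in a dose series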;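 note: bacteria incubated seven days before Alamar blue readout; 0% = bacteria only wells and 100% = bacteria with antibiotic wells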
Mtb betalactam: beta-lactam sensitization of Mtb H37Rv; M. tuberculosis H37Rv growth with meropenem, percent inhibition; hits of this screen are not shown here; inhibition, % at 25 µM; 330,000 compounds, 0.27% hits;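 active = about 74% or more and at least 40 points above the plate without the antibiotic, then above 30% in a dose series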;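 note: growth measured after seven days incubation then overnight dye step; 0% = bacteria only wells and 100% = bacteria with antibiotic; twin plates without the antibiotic show which effects depend on it; some results filed as inactive read as strong as hits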
Arbovirus inh repeat: also measured in Arbovirus inh; calls as there; inhibition, %; measured here: 10K subset replicate screen; many hits read low in the repeat;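 first of two repeat runs on a subset; 0% = infected and 100% = uninfected wells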
An asterisk follows results filed as active; . = not tested or not shown. Some of the compounds tested; the hit share may differ from the screen's.

SMILES	RecA intein inh	YopH inh	Arbovirus inh	Mtb H37Rv	Mtb betalactam	others
CCCC(=O)Nc1cccc(-c2nc3cc(C)c(C)cc3o2)c1	-5.9	-54	-2	-2%	42
O=C(Nc1cc2c(oc1=O)CCCC2=O)c1ccc(Cl)cc1	0.4	-8	14	1%	2
Cc1cccc(NC(=O)CSCC(=O)Nc2ccccc2C(=O)NC2CC2)c1	1.3	.	.	.	-17
O=C(CNC(=O)c1ccc(Br)o1)NCc1ccccc1	0.5	.	.	.	9
C/C(=N/O)c1ccc2ccc3ccccc3c2c1	14	.	.	.	21
CCN1CSC(=S)N(Cc2ccccc2)C1	11	.	.	.	98
COc1ccc(COC(=O)CCS(=O)(=O)c2ccc(C)cc2)cc1	9.8	.	.	.	3
C(=N\N1CCN(C2c3ccccc3-c3ccccc32)CC1)/c1ccncc1	2.8	-29	-1	80%	31
CN1C(=O)c2ccc(C(=O)Nc3ccccc3O)cc2C1=O	0.4	.	.	.	-3
O=[N+]([O-])c1ccccc1NCCNc1ncc(C(F)(F)F)cc1Cl	4.8	-2	6	12%	-9
C/C(=N\NC(=O)c1ccc(-c2ccccc2)cc1)C1C(=O)c2ccccc2C1=O	2.9	.	-26	61%	2
C/C(=N\NC(=S)NCCc1ccccc1)c1ccc(Cl)cc1Cl	15	.	.	.	18
CCOc1ccc(NC(=O)CSc2nc3ccccc3c(=O)n2CCCC(=O)NCCCN2CCCC2=O)cc1	-5.3	.	-2	-3%	7
COc1ccccc1C(=O)N1CCN(C2CCN(Cc3ccccc3)CC2)CC1	-1.6	-11	3	.	-5
COc1ccc(CN(Cc2cccnc2)S(=O)(=O)c2ccc(-n3cnnn3)c(C)c2)cc1OC	-2.3	-30	2	-2%	-8
CSc1nnc(C)c(=O)n1COC(=O)COc1ccc(Cl)cc1	0.8	.	14	3%	-4
O=C1c2ccccc2C(Nc2ccc3c(c2)OCCO3)N1Cc1ccccc1 (stereo not drawn)	6.7	-32	8	10%	-5	Arbovirus inh repeat=9
Cc1ccc(C)c(OCC(=O)Nc2nonc2NC(=O)COc2cc(C)ccc2C)c1	1.3	-8	4	-10%	6
CCOC(=O)C[n+]1c(C)csc1C	-1.1	-20	1	-2%	-4
Nc1cccc(CCc2ccncc2)c1	1.8	.	.	.	-15

Three compounds already listed, sorted by number of heavy atoms, low to high:
SMILES	RecA intein inh	YopH inh	Arbovirus inh	Mtb H37Rv	Mtb betalactam	others
Nc1cccc(CCc2ccncc2)c1	1.8	.	.	.	-15
C/C(=N/O)c1ccc2ccc3ccccc3c2c1	14	.	.	.	21
CN1C(=O)c2ccc(C(=O)Nc3ccccc3O)cc2C1=O	0.4	.	.	.	-3

Among those listed so far, these contain a Cl atom:
SMILES	RecA intein inh	YopH inh	Arbovirus inh	Mtb H37Rv	Mtb betalactam	others
O=C(Nc1cc2c(oc1=O)CCCC2=O)c1ccc(Cl)cc1	0.4	-8	14	1%	2
O=[N+]([O-])c1ccccc1NCCNc1ncc(C(F)(F)F)cc1Cl	4.8	-2	6	12%	-9
C/C(=N\NC(=S)NCCc1ccccc1)c1ccc(Cl)cc1Cl	15	.	.	.	18
CSc1nnc(C)c(=O)n1COC(=O)COc1ccc(Cl)cc1	0.8	.	14	3%	-4

The listing continues:
SMILES	RecA intein inh	YopH inh	Arbovirus inh	Mtb H37Rv	Mtb betalactam	others
O=C1NC2=C(C(=O)CCC2)C(c2ccc3ncccc3c2)N1 (stereo not drawn)	4.1	-11	-2	1%	-3
Cn1c2ccc(Cl)cc2c2nc3ccccc3nc21	-3.8	.	-3	13%	5	Arbovirus inh repeat=-3
O=C(c1ccccc1)c1c[nH]c(C(=O)NCCCN2CCOCC2)c1	-2.4	-28	3	-4%	-3
Cc1ccc2nc(N3CCN(Cc4ccc(F)cc4)C3=O)c(C)cc2c1	2.9	-35	-9	2%	-8
C=CCCC(=O)Nc1nc(C)c(-c2csc(Nc3ccccc3OC)n2)s1	5.3	-31	-13	3%	72
CCCc1ccc(S(=O)(=O)N(C)S(=O)(=O)c2ccc(F)cc2)cc1	5.3	.	.	.	0
O=C(N/N=C/c1cc2ccccc2[nH]1)c1ccccc1Cl	-0.9	.	.	-5%	1
COc1cc(/C=C2\SC(=Nc3ccc(N4CCOCC4)cc3)N(C)C2=O)ccc1OC(C)C(=O)O (stereo not drawn)	4.1	-20	-11	-3%	8
Cc1ccccc1Nc1nc(N)nc(CSc2nnnn2-c2ccccc2)n1	2.7	-25	-3	4%	-4
COc1ccc(NC(=O)CO/N=C2/CCCc3nonc32)c(OC)c1	-1.8	.	15	-1%	-5
COc1ccc(-c2cc(C(=O)Nc3ccc4c(c3)OCO4)no2)cc1OC	4.2	.	.	.	7
CCOC(=O)C1C2C=CC3(CN(c4ccc(Cl)c(F)c4)C(=O)C13)O2 (stereo not drawn)	-0.2	-6	6	7%	2
Cc1ccc(C(=O)OCC(=O)NC(C)C)cc1S(=O)(=O)N1CCOCC1	4.8	.	1	-2%	3
COc1ccc(OC)c(CCNC(=O)CSc2ccsc2[N+](=O)[O-])c1	1.1	.	3	4%	-7
CC(C)(C)OC(=O)NC(=NCCCc1cn(CC(=O)N2CCN(C(=O)OC(C)(C)C)CC2)nn1)NC(=O)OC(C)(C)C	-0.4	.	1	-3%	-9
Nc1ccc(C23CC4CC(CC(CO)(C4)C2)C3)cc1	.	-44	-6	-2%	4
COCCC1CCCCN1C(=O)c1cc(COc2cccc(C(C)=O)c2)on1 (stereo not drawn)	-1.6	.	.	.	3
CCC(CC)C(=O)NCCc1cc2c(OC)ccc(OC)c2[nH]c1=O	2.1	-45	-3	-10%	-13
O=C(NCC1CCCO1)c1cc2c([nH]c3ccccc32)c(-c2cccc(Br)c2)n1 (stereo not drawn)	2.8	.	.	.	-5
NC(=S)N/N=C/c1coc2ccc(Br)cc2c1=O	.	.	.	-4%	-5

The final five entries of the part before come first, to join the parts:
SMILES	RecA intein inh	YopH inh	Arbovirus inh	Mtb H37Rv	Mtb betalactam	others
Nc1ccc(C23CC4CC(CC(CO)(C4)C2)C3)cc1	.	-44	-6	-2%	4
COCCC1CCCCN1C(=O)c1cc(COc2cccc(C(C)=O)c2)on1 (stereo not drawn)	-1.6	.	.	.	3
CCC(CC)C(=O)NCCc1cc2c(OC)ccc(OC)c2[nH]c1=O	2.1	-45	-3	-10%	-13
O=C(NCC1CCCO1)c1cc2c([nH]c3ccccc32)c(-c2cccc(Br)c2)n1 (stereo not drawn)	2.8	.	.	.	-5
NC(=S)N/N=C/c1coc2ccc(Br)cc2c1=O	.	.	.	-4%	-5
CCCCc1nc2sc3c(SCC(=O)NCc4ccco4)ncnc3c2c2c1CCC2	5.3	-25	-26	-4%	59
C/C(=N\NC(=O)c1ccncc1)c1cccc(NC(=O)c2ccc(Cl)s2)c1	-0.2	.	.	.	99
Cc1nonc1CN(C)C(=O)CC1C(=O)NCCN1Cc1cccc(C(F)(F)F)c1 (stereo not drawn)	1.6	.	3	-1%	1
CC(C)c1ccc(OCC(O)CN2CCN(c3ccccn3)CC2)cc1 (stereo not drawn)	1.5	.	.	.	2
COc1ccc(NC(=O)c2c3c(nc4ccccc24)CCN(Cc2ccccc2)C3)c(OC)c1	3.8	.	2	10%	87
CC(C)NC(=S)NN=C1CCCCCCCCCCC1	0.4	.	-2	1%	0
CCOc1ccc(-c2noc(CCC(=O)NC3CCCC3)n2)cc1OC	-1.8	.	.	.	0
COc1ccc(S(=O)(=O)N2CCC(C(=O)NCCC3=CCCCC3)CC2)cc1C	1.0	-10	2	-7%	-6
COc1ccc(C(=O)NC=C2C(=O)OC(C)(C)OC2=O)cc1	-0.3	.	3	5%	-3
OC(CNCC#Cc1ccccc1)c1ccccc1 (stereo not drawn)	-0.6	.	-3	12%	3
COc1ccc(NS(=O)(=O)c2c(C)n(C)c(=O)n(C)c2=O)cc1	-6.0	.	.	.	-4
Cc1sc2ncnc(N3CCC(C(=O)Nc4ccc(Br)cc4Br)CC3)c2c1C	0.7	.	.	.	11

Pulled one by one from above, 4 records:
SMILES	RecA intein inh	YopH inh	Arbovirus inh	Mtb H37Rv	Mtb betalactam	others
O=C(NCC1CCCO1)c1cc2c([nH]c3ccccc32)c(-c2cccc(Br)c2)n1 (stereo not drawn)	2.8	.	.	.	-5
O=C(CNC(=O)c1ccc(Br)o1)NCc1ccccc1	0.5	.	.	.	9
Cc1sc2ncnc(N3CCC(C(=O)Nc4ccc(Br)cc4Br)CC3)c2c1C	0.7	.	.	.	11
CCOC(=O)C1C2C=CC3(CN(c4ccc(Cl)c(F)c4)C(=O)C13)O2 (stereo not drawn)	-0.2	-6	6	7%	2
